HIV Env fusion: inhibitors of HIV-1 Env-driven cell-cell fusion, primary screen, HeLa-JRFL effector, CEM21 target cells, luciferase; inhibition, % at 12.3 µM; 1.1% of 360,000 active;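 active = mean replicate inhibition score of at least 50 and every replicate individually at or above 50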;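 also: 0% = plate neutral controls and 100% = maraviroc near 300 nM; one replicate is shown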
Yeast UUG start: modulators of yeast start codon fidelity, primary screen, whole organism, S. cerevisiae, single point, plate reader | AID 602363, 2012 | 0.13% of 350,000 active | S. cerevisiae UUG-firefly luciferase reporter, luminescence/redox ratio | activity score, % at 18.7 µM;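 active = replicate mean at a twofold rise or more, about +100% in these data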;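 also: firefly luciferase made from a UUG start codon reports start codon fidelity; reporter light over untreated wells divided by growth signal over untreated wells; some hits fall short of that in this replicate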
Active calls of the source: *; [ ] = dose if it differs, or a comment.

Start of the data: the first three compounds, to show the layout:
Compound	HIV Env fusion	Yeast UUG start
CO[C@@H]1CN(C)C(=O)c2cc(NS(=O)(=O)CC(F)(F)F)ccc2OC[C@@H](C)NC[C@@H]1C	14.5[16.7 µM]	-9.9
C/C=C/c1ccc2c(c1)O[C@H](CN(C)Cc1ccccc1)[C@@H](C)CN([C@H](C)CO)S2(=O)=O	27.6[16.7 µM]	-12.3
COc1ccc(-c2ccc3c(c2)O[C@H](CN(C)C)[C@H](C)CN([C@H](C)CO)S3(=O)=O)cc1	16.2[16.7 µM]	6.7

The listing, from the start:
Compound	HIV Env fusion	Yeast UUG start
CO[C@@H]1CN(C)C(=O)c2cc(NS(=O)(=O)CC(F)(F)F)ccc2OC[C@@H](C)NC[C@@H]1C	14.5[16.7 µM]	-9.9
C/C=C/c1ccc2c(c1)O[C@H](CN(C)Cc1ccccc1)[C@@H](C)CN([C@H](C)CO)S2(=O)=O	27.6[16.7 µM]	-12.3
COc1ccc(-c2ccc3c(c2)O[C@H](CN(C)C)[C@H](C)CN([C@H](C)CO)S3(=O)=O)cc1	16.2[16.7 µM]	6.7
Cc1ccc(S(=O)(=O)N(C)C[C@H]2OCCCC[C@H](C)Oc3ccc(NS(=O)(=O)c4c(C)noc4C)cc3C(=O)N([C@H](C)CO)C[C@H]2C)cc1	-81.7[16.7 µM]	-6.7
Cc1ccc(S(=O)(=O)Nc2ccc3c(c2)CC(=O)N([C@H](C)CO)C[C@H](C)[C@@H](CN(C)C(=O)Nc2ccc4c(c2)OCO4)O3)cc1	0.6[16.7 µM]	8.3
C[C@@H]1CCCCO[C@H](CN(C)C(=O)c2ccncc2)[C@@H](C)CN([C@@H](C)CO)C(=O)c2cc(N(C)C)ccc2O1	-25.6[16.7 µM]	-14.5
C[C@@H]1CN([C@H](C)CO)C(=O)c2cc(/C=C/c3ccccc3)cnc2O[C@H]1CN(C)C(=O)c1cccc(F)c1	15.6[16.7 µM]	2.7
C[C@@H]1CCCCO[C@@H](CN(C)S(=O)(=O)c2ccccc2)[C@H](C)CN([C@@H](C)CO)C(=O)c2cc(NC(=O)CCCN(C)C)ccc2O1	8.2[16.7 µM]	18.6
CCNC(=O)Nc1ccc2c(c1)C(=O)N(C)[C@@H]1CC[C@@H](CC(=O)NCCOC)O[C@@H]1CO2	-8.3[16.7 µM]	-8.8
C[C@H]1CN([C@@H](C)CO)C(=O)Cc2cc(NC(=O)Nc3ccc(C(F)(F)F)cc3)ccc2O[C@H]1CN(C)C(=O)Nc1ccc(C(F)(F)F)cc1	42.6[16.7 µM]	-27.7
C[C@@H]1CCCCO[C@@H](CN(C)C(=O)CCC(F)(F)F)[C@@H](C)CN([C@H](C)CO)C(=O)c2cc(NS(=O)(=O)c3cccs3)ccc2O1	-42.9[16.7 µM]	2.3
CN(C)C(=O)C[C@@H]1C=C[C@H](NC(=O)NC2CCCC2)[C@@H](CO)O1	-8.8[16.7 µM]	-1.2

Later entries.
Compound	HIV Env fusion	Yeast UUG start
Cc1noc(C)c1S(=O)(=O)N(C)C[C@@H]1Oc2c(NC(=O)C3CC3)cccc2C(=O)N([C@@H](C)CO)C[C@@H]1C	-7.1[16.7 µM]	-8.9
C[C@@H]1CN([C@H](C)CO)C(=O)c2cc(N(C)C)ccc2O[C@@H](C)CCCCO[C@H]1CN(C)C(=O)C1CCCCC1	2.6[16.7 µM]	7.5
O=C(C[C@@H]1CC[C@H](NC(=O)CN2CCOCC2)[C@H](CO)O1)NC1CCC1	0.7[16.7 µM]	-10.2
C[C@@H]1CN([C@H](C)CO)C(=O)c2cc(NC(=O)Nc3cccc4ccccc34)ccc2O[C@@H]1CN(C)Cc1ccc2c(c1)OCO2	-3.4[16.7 µM]	3.4
COc1ccc(NC(=O)N(C)C[C@H]2Oc3ccc(NC(=O)Nc4ccc5c(c4)OCO5)cc3CC(=O)N([C@@H](C)CO)C[C@H]2C)cc1	-5.5[16.7 µM]	7.4
C[C@H](CO)N1C[C@H](C)[C@@H](CN(C)CC2CCCCC2)Oc2ccc(NS(=O)(=O)c3cccs3)cc2CC1=O	-1.9[16.7 µM]	-12.0
COc1ccc(S(=O)(=O)N(C)C[C@@H]2Oc3ccc(NC(=O)c4ccncc4)cc3CC(=O)N([C@H](C)CO)C[C@H]2C)cc1	-12.0[16.7 µM]	-0.9
C[C@@H]1CCCCO[C@@H](CN(C)Cc2ccccc2)[C@H](C)CN([C@@H](C)CO)C(=O)c2cc(NC(=O)Nc3ccccc3)ccc2O1	4.2[16.7 µM]	54.0
C[C@H]1CCCCO[C@H](CN(C)C(=O)c2ccccc2)[C@@H](C)CN([C@@H](C)CO)C(=O)c2cc(NC(=O)CCC(F)(F)F)ccc2O1	5.3[16.7 µM]	128.0*
C[C@@H]1CN([C@H](C)CO)C(=O)c2cc(NC(=O)Cn3cnnn3)ccc2O[C@H]1CN(C)Cc1ccc(Cl)c(Cl)c1	-1.1[16.7 µM]	-4.9
CO[C@H]1CN(C)C(=O)c2cc(NS(=O)(=O)c3ccccc3C)ccc2OC[C@H](C)N(S(C)(=O)=O)C[C@H]1C	6.7[16.7 µM]	4.3
C[C@H](CO)N1C[C@H](C)[C@@H](CN(C)C(=O)CN(C)C)Oc2cc(C3=CCCCC3)ccc2S1(=O)=O	0.3[16.7 µM]	14.7

(continued)
Compound	HIV Env fusion	Yeast UUG start
CC(C)NC(=O)N[C@@H]1CC[C@H](CCNC(=O)C2CCC2)O[C@H]1CO	0.5[16.7 µM]	-14.4
C[C@@H]1CN([C@H](C)CO)S(=O)(=O)c2ccc(-c3cccc(F)c3)cc2O[C@H]1CN(C)S(=O)(=O)c1ccc(F)cc1	30.0[16.7 µM]	-20.4
C[C@@H]1CN([C@@H](C)CO)C(=O)c2cc(NS(=O)(=O)c3cccs3)ccc2O[C@@H]1CN(C)S(=O)(=O)c1ccccc1	-28.9[16.7 µM]	7.5
COc1ccc(NC(=O)N(C)C[C@H]2OCCCC[C@@H](C)Oc3ccc(NC(=O)CCCN(C)C)cc3C(=O)N([C@@H](C)CO)C[C@@H]2C)cc1	2.9[16.7 µM]	10.4
O=C(NCC[C@@H]1CC[C@H](NC(=O)c2ccc3c(c2)OCO3)[C@@H](CO)O1)Nc1cc(F)ccc1F	0.5[16.7 µM]	-3.2
Cc1ccc(S(=O)(=O)N(C)C[C@H]2Oc3ccc(NS(=O)(=O)c4cccs4)cc3CC(=O)N([C@H](C)CO)C[C@@H]2C)cc1	4.2[16.7 µM]	9.4
COc1ccc(S(=O)(=O)Nc2ccc3c(c2)CC(=O)N([C@H](C)CO)C[C@@H](C)[C@H](CN(C)C(=O)Nc2c(C)noc2C)O3)cc1	11.1[16.7 µM]	1.0
O=C(C[C@H]1C=C[C@H](NC(=O)Nc2ccc3c(c2)OCO3)[C@H](CO)O1)NCc1ccc(Cl)cc1	2.0[16.7 µM]	-9.0
Cc1noc(C)c1NC(=O)Nc1ccc2c(c1)C(=O)N([C@@H](C)CO)C[C@H](C)[C@@H](CN(C)S(=O)(=O)c1cn(C)cn1)OCCCC[C@@H](C)O2	10.3[16.7 µM]	1.6
C[C@@H]1CCCCO[C@@H](CN(C)C(=O)CCCN(C)C)[C@@H](C)CN([C@H](C)CO)C(=O)c2cc(NC(=O)Nc3ccc(C(F)(F)F)cc3)ccc2O1	5.2[16.7 µM]	5.8
COCC#Cc1ccc2c(c1)O[C@H](CN(C)C(=O)NC(C)C)[C@H](C)CN([C@H](C)CO)S2(=O)=O	-77.2[16.7 µM]	13.1
Cc1ccc(S(=O)(=O)Nc2ccc3c(c2)C(=O)N([C@H](C)CO)C[C@H](C)[C@H](CN(C)S(=O)(=O)c2c(C)noc2C)O3)cc1	-13.9[16.7 µM]	7.2

(further entries)
Compound	HIV Env fusion	Yeast UUG start
CN1C(=O)c2cc(NS(C)(=O)=O)ccc2OC[C@H]2O[C@H](CC(=O)NCc3ccccc3)CC[C@@H]21	8.8[16.7 µM]	-18.5
O=C(C[C@@H]1CC[C@H](NC(=O)C2CC2)[C@@H](CO)O1)Nc1nccs1	4.7[16.7 µM]	-22.5
CCNC(=O)C[C@H]1CC[C@@H]2[C@H](COc3ccc(NS(C)(=O)=O)cc3C(=O)N2C)O1	5.2[16.7 µM]	1.8
O=C(C[C@H]1C[C@H]2c3cc(NC(=O)c4ccc5c(c4)OCO5)ccc3O[C@H]2[C@H](CO)O1)NC1CCCC1	-6.6[16.7 µM]	-13.1
O=C(C[C@H]1C=C[C@H](NS(=O)(=O)c2ccc(F)cc2)[C@@H](CO)O1)NC1CCC1	-1.7[16.7 µM]	-5.4
N#C[C@@H]1[C@@H](c2ccc(C#CC3CCCCC3)cc2)[C@H](CO)N1S(=O)(=O)c1ccccc1	5.5[16.7 µM]	-16.0
C=CCOC(=O)[C@H]1[C@@H]2C(=O)O[C@@H](c3ccccc3)[C@@H](c3ccccc3)N2[C@@H](c2ccc(OCCOC(=O)[C@@H]3C[C@@H]4C(=O)N[C@@H](Cc5ccccc5)C(=O)N4[C@@H]3c3ccc(O)cc3)cc2)[C@]12C(=O)Nc1ccc(I)cc12	-4.3[16.7 µM]	2.5
COc1cccc(NC(=O)N(C)C[C@H]2Oc3cc(-c4ccccc4F)ccc3S(=O)(=O)N([C@@H](C)CO)C[C@@H]2C)c1	15.5[16.7 µM]	-4.2
C[C@@H]1CN([C@@H](C)CO)C(=O)c2cc(NC(=O)Nc3ccccc3)ccc2O[C@@H](C)CCCCO[C@H]1CN(C)C(=O)C1CCCCC1	34.7[16.7 µM]	7.8
C[C@@H]1CN([C@H](C)CO)C(=O)c2cc(C#CCc3ccccc3)cnc2O[C@H]1CN(C)C(=O)C1CCC1	-6.5[16.7 µM]	11.6
C[C@H]1CN([C@@H](C)CO)C(=O)c2cc(NC(=O)Nc3ccc(C(F)(F)F)cc3)ccc2O[C@H]1CN(C)C(=O)Nc1ccc(F)cc1	-16.7[16.7 µM]	-17.0
CCCC#Cc1ccc2c(c1)O[C@@H](CN(C)S(C)(=O)=O)[C@@H](C)CN([C@H](C)CO)S2(=O)=O	19.4[16.7 µM]	43.3

Continued:
Compound	HIV Env fusion	Yeast UUG start
C[C@H](CO)N1C[C@H](C)[C@@H](CN(C)Cc2ccc(C(F)(F)F)cc2)OCCCC[C@H](C)Oc2ccc(NC(=O)Nc3cccc4ccccc34)cc2C1=O	8.4[16.7 µM]	3.2
O=C(NC1CCCCC1)N[C@@H]1CC[C@@H](CC(=O)N2CCOCC2)O[C@H]1CO	-16.2[16.7 µM]	-0.6
Cc1noc(C)c1NC(=O)N(C)C[C@H]1Oc2ccc(NC(=O)Nc3cccc4ccccc34)cc2CC(=O)N([C@@H](C)CO)C[C@H]1C	8.5[16.7 µM]	16.8
COc1ccc(S(=O)(=O)Nc2ccc3c(c2)C(=O)N([C@H](C)CO)C[C@H](C)[C@H](CN(C)S(=O)(=O)c2ccccc2)O3)cc1	11.5[16.7 µM]	10.4
C[C@@H]1CCCCO[C@@H](CN(C)CC2CCCCC2)[C@H](C)CN([C@@H](C)CO)C(=O)c2cc(N(C)C)ccc2O1	6.6[16.7 µM]	21.1
CO[C@H]1CN(C)C(=O)c2cc(NC(=O)NC(C)C)ccc2OC[C@@H](C)N(C(=O)CC2CC2)C[C@H]1C	2.7[16.7 µM]	4.5
COc1ccc(S(=O)(=O)Nc2ccc3c(c2)C(=O)N(C)C[C@H](OC)[C@H](C)CN[C@@H](C)CO3)cc1	0.0[16.7 µM]	21.1
C[C@@H]1CN([C@H](C)CO)C(=O)Cc2cc(NC(=O)NC3CCCCC3)ccc2O[C@H]1CN(C)CC1CC1	-3.1[16.7 µM]	-7.1
C[C@H]1CN([C@@H](C)CO)C(=O)c2cccc(NC(=O)Nc3ccc(F)cc3)c2O[C@H]1CN(C)Cc1ccccc1	-1.2[16.7 µM]	-3.3
CN(C)C(=O)c1ccc(-c2ccc([C@@H]3[C@H](C#N)N(C(=O)C4CCC4)[C@H]3CO)cc2)cc1	6.0[16.7 µM]	2.9
COc1ccc(S(=O)(=O)Nc2cccc3c2O[C@@H](CN(C)Cc2ccc(-c4ccccc4)cc2)[C@H](C)CN([C@@H](C)CO)C3=O)cc1	-7.3[16.7 µM]	-6.9
CO[C@H]1CN(C)C(=O)c2cc(NC(=O)c3ccccc3)ccc2OC[C@@H](C)NC[C@@H]1C	17.4[16.7 µM]	12.2

(listing goes on)
Compound	HIV Env fusion	Yeast UUG start
Cc1noc(C)c1S(=O)(=O)N(C)C[C@@H]1OCCCC[C@@H](C)Oc2ccc(NS(C)(=O)=O)cc2C(=O)N([C@H](C)CO)C[C@@H]1C	21.3[16.7 µM]	11.7
C[C@H](CO)N1C[C@H](C)[C@@H](CN(C)Cc2ccc(Oc3ccccc3)cc2)Oc2c(NC(=O)NC3CCCCC3)cccc2C1=O	18.4[16.7 µM]	2.0
CC(C)NC(=O)Nc1ccc2c(c1)C(=O)N([C@H](C)CO)C[C@@H](C)[C@H](CN(C)C(=O)Nc1ccc(C(F)(F)F)cc1)O2	5.7[16.7 µM]	12.0
C[C@H](CO)N1C[C@H](C)[C@@H](CN(C)C(=O)NC2CCCC2)Oc2ncc(-c3ccccc3)cc2C1=O	15.3[16.7 µM]	3.5
CCCNC(=O)N(C)C[C@H]1Oc2ncc(C#CCc3ccccc3)cc2C(=O)N([C@H](C)CO)C[C@@H]1C	3.0[16.7 µM]	26.5
C[C@@H]1CCCCO[C@@H](CN(C)C)[C@@H](C)CN([C@@H](C)CO)C(=O)c2cc(NS(=O)(=O)c3ccccc3)ccc2O1	10.2[16.7 µM]	-0.3

From PubChem

Not all compounds are listed; the hit share may differ from the screen's.
